Compound activity from PubChem.
BJeLR viability: compounds reducing viability of BJeLR cells; BJeLR fibroblasts viability, CellTiterGlo ATP luminescence, 48 h; HRASV12, hTERT and SV40 LT/ST transformed; viability loss activity score, % (no concentration beside the values); 0.64% of 30,000 active; in the data active means viability loss activity score above about 50%; about a fifth of its hits are not listed in these tables;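 further: higher score means fewer live cells and less ATP luminescence; stock transfer was 50 or 100 nL into about 30 µL; 0% = vehicle wells and 100% = a reference killing control; one replicate is shown; the record names a cut of 85%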
A1 inh: A1 inhibition; MEF A1-2A-BIM cells, caspase-Glo luminescence, 3 h; percent of clofoctol signal, DMSO as zero; caspase activation, % (no concentration beside the values); 0.51% of 21,000 active; AID 2241;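 active means most replicate scores above 10, or exactly half above 10 with mean activity above 10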;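 further: effector caspase 3 and 7 activity cleaving a DEVD luciferin substrate; 50 nL library stock added to about 30 µL; numbers are from one replicate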
Starred values were filed as active, the others as inactive; nt = no result given. A portion of the library; rates above refer to the full screens.

SMILES	BJeLR viability	A1 inh
C[C@@H]1CN([C@H](C)CO)C(=O)c2cc(NC(=O)CCN3CCOCC3)ccc2O[C@H]1CN(C)Cc1ccc(Oc2ccccc2)cc1	4.3	0.5
CC(C)NC(=O)Nc1ccc2c(c1)C(=O)N([C@H](C)CO)C[C@H](C)[C@H](CN(C)S(=O)(=O)c1cn(C)cn1)O2	-0.6	-0.6
OC[C@H]1O[C@@H](OCCc2ccccc2)[C@H](O)[C@@H](O)[C@@H]1O	-0.7	-0.8
O=C(O)C1CCCN(CCC=C(c2ccccc2)c2ccccc2)C1 (centres undefined)	2.9	0.0
COc1ccc2c(c1)c(C(=O)O)c(C)n2CCc1ccc(OC)c(OC)c1	-9.1	-0.8
C=CCN1C(=O)C(O)(CC(=O)c2ccccc2)c2ccccc21 (centres undefined)	10.3	0.5
C[C@H]1CN([C@@H](C)CO)C(=O)c2cc(NC(=O)Nc3ccc(C(F)(F)F)cc3)ccc2O[C@@H]1CN(C)C(=O)Nc1ccc(F)cc1	-1.5	0.7
COc1cc(O)c(C(C)=O)c(OC)c1	4.0	-0.2
C[C@@H]1CN([C@H](C)CO)C(=O)c2cc(NS(=O)(=O)c3ccc(Cl)cc3)ccc2O[C@H]1CN(C)S(=O)(=O)c1cccs1	-0.4	1.1
CC[N+](C)(CC)Cc1cc2ccccc2c2c1COC2	2.2	-0.2
C/C=C(\C)C(=O)O[C@@H]1c2c(ccc3ccc(=O)oc23)OC(C)(C)[C@@H]1OC(C)=O	-3.0	0.5
COc1ccc(-c2noc(CC(=O)N(C)CCC#N)n2)cc1	-2.1	0.0
C[C@@H]1CN([C@@H](C)CO)C(=O)c2cccc(NC(=O)NC3CCCCC3)c2O[C@@H]1CN(C)Cc1ccc(C(F)(F)F)cc1	2.1	nt
C[C@@H]1CN([C@H](C)CO)C(=O)c2cc(NC(=O)Nc3ccccc3)ccc2O[C@@H]1CN(C)S(C)(=O)=O	-3.1	-0.1
C[C@@H]1CN([C@@H](C)CO)C(=O)c2cc(NC(=O)Cn3cnnn3)ccc2O[C@H]1CN(C)C(=O)Nc1ccccc1	1.6	-0.9
O=C1c2ccccc2C(=O)N1CCn1c(=O)oc2ccccc21	2.9	1.4
CC1CCCCC1NS(=O)(=O)c1ccc(S(=O)(=O)N2CCN(c3ncccn3)CC2)cc1 (centres undefined)	7.0	-0.9
CCCNC(=O)c1cc(=O)n(Cc2ccc(C)cc2)c2ccccc12	2.2	0.0
C[C@@H]1CN([C@@H](C)CO)C(=O)c2cccc(NC(=O)c3cnccn3)c2O[C@@H]1CN(C)C	1.2	nt
Cc1c(S(=O)(=O)c2ccc(Cl)cc2)csc1C(=O)Nc1ccc(F)cc1F	-0.3	-0.3
Cc1ccc(C)c(CSC2=NCCN2C(=O)COc2ccccc2)c1	2.9	nt
O=c1cc(-c2ccccc2)oc2ccccc12	3.5	-1.1
Cc1ccc(NC(=O)C2CCCN(S(=O)(=O)c3ccc4nc(-c5ccccc5)[nH]c4c3)C2)cc1 (centres undefined)	3.0	0.6
C[C@H]1CN([C@@H](C)CO)C(=O)c2cc(NC(=O)Cc3cn(C)c4ccccc34)ccc2O[C@H]1CN(C)C(=O)Nc1ccc2c(c1)OCO2	-1.9	0.2
O=C(O)COCC(=O)Nc1ccc2c(c1)oc1ccccc12	1.2	0.4
COC(=O)c1ccc(C(=O)NC(=S)Nc2nc3c(s2)CCCC3)cc1	-1.0	nt
CC(=O)O[C@@H]1O[C@@H]2CO[C@@H](c3ccccc3)O[C@H]2[C@H](OC(C)=O)[C@H]1OC(C)=O	-3.6	1.0
C[C@H]1CN([C@@H](C)CO)C(=O)c2cc(NC(=O)Nc3cccc4ccccc34)ccc2O[C@H]1CN(C)C(=O)NC1CCCCC1	3.3	-0.3
CC(C)NC(=O)N(C)C[C@H]1Oc2c(NC(=O)C3CCOCC3)cccc2C(=O)N([C@@H](C)CO)C[C@H]1C	7.7	nt
Cc1noc(C)c1NC(=O)Nc1cccc2c1O[C@H](CN(C)Cc1ccc(-c3ccccc3)cc1)[C@H](C)CN([C@H](C)CO)C2=O	-3.0	nt

A section taken from the entries so far, for reference:
SMILES	BJeLR viability	A1 inh
O=C(O)COCC(=O)Nc1ccc2c(c1)oc1ccccc12	1.2	0.4
COC(=O)c1ccc(C(=O)NC(=S)Nc2nc3c(s2)CCCC3)cc1	-1.0	nt
CC(=O)O[C@@H]1O[C@@H]2CO[C@@H](c3ccccc3)O[C@H]2[C@H](OC(C)=O)[C@H]1OC(C)=O	-3.6	1.0
C[C@H]1CN([C@@H](C)CO)C(=O)c2cc(NC(=O)Nc3cccc4ccccc34)ccc2O[C@H]1CN(C)C(=O)NC1CCCCC1	3.3	-0.3
CC(C)NC(=O)N(C)C[C@H]1Oc2c(NC(=O)C3CCOCC3)cccc2C(=O)N([C@@H](C)CO)C[C@H]1C	7.7	nt
Cc1noc(C)c1NC(=O)Nc1cccc2c1O[C@H](CN(C)Cc1ccc(-c3ccccc3)cc1)[C@H](C)CN([C@H](C)CO)C2=O	-3.0	nt

Continuation.
SMILES	BJeLR viability	A1 inh
C[C@@H]1CN([C@H](C)CO)C(=O)c2cc(NC(=O)CCCCCC(=O)Nc3ccccc3N)ccc2O[C@H]1CN(C)C(=O)Nc1ccccc1	-0.5	nt
CSc1sc(C(=O)NN)cc1S(=O)(=O)C(C)C	0.4	0.1
Cc1ccc2c(Sc3ccc(Cl)cc3)c(C(=O)O)[nH]c2c1	9.2	-0.4
Cn1c(CCCO)nc2ccccc21	3.4	0.7
O=C(CS(=O)(=O)Nc1cccc(C(F)(F)F)c1)Nc1cccc(C(F)(F)F)c1	-0.6	-0.2
CCCCC[C@H](O)CC(=O)CCc1ccc(O)c(OC)c1	3.1	-0.3
COc1ccc(C(=O)CSc2nc3ccc(OC)cc3[nH]2)cc1	-1.4	-0.3
Cc1ncoc1C(=O)NCCC(c1ccccc1)c1ccccc1	5.2	0.6
COc1ccc(NC(=O)N(C)C[C@H]2Oc3c(NC(=O)C4CCOCC4)cccc3C(=O)N([C@H](C)CO)C[C@@H]2C)cc1	-1.3	nt
CN(C)CCNC(=O)c1cc2ccccc2oc1=O	0.0	1.0
Cc1noc(C)c1NC(=O)Nc1ccc2c(c1)C(=O)N([C@H](C)CO)C[C@H](C)[C@H](CN(C)S(=O)(=O)c1ccc(F)cc1)O2	1.8	-0.5
C[C@H]1CN([C@@H](C)CO)C(=O)c2cc(NC(=O)C3CC3)ccc2O[C@H]1CN(C)C(=O)Nc1ccccc1	-4.0	0.6
COc1ccc(NC(=O)Nc2ccc(N3CCCC3=O)cc2)cc1OC	2.9	0.5
C[C@H](CO)N1C[C@H](C)[C@@H](CN(C)C(=O)Nc2ccccc2)Oc2ccc(NS(=O)(=O)c3ccc(F)cc3)cc2C1=O	2.9	0.8
CC1=NN(c2nc3ccccc3s2)C(O)(C(F)(F)F)C1 (centres undefined)	1.9	0.8
CCOc1ccc(CCNC(=O)C2CCN(S(C)(=O)=O)CC2)cc1OCC	-2.5	0.2
CN(Cc1ccccc1)C(=O)c1ccccc1Cl	-1.4	0.0
COc1ccc(S(=O)(=O)Nc2ccc3c(c2)C(=O)N([C@H](C)CO)C[C@@H](C)[C@H](CN(C)Cc2ccc(Oc4ccccc4)cc2)O3)cc1	-8.0	-0.2
Cc1ccc(-c2noc(CNc3ccc(Oc4ccccc4)cc3)n2)cc1	-1.2	nt
CC(C)NC(=O)N(C)C[C@@H]1Oc2ccc(NC(=O)Nc3ccc(F)cc3)cc2C(=O)N([C@@H](C)CO)C[C@H]1C	1.8	-0.1
COc1ccc(S(=O)(=O)Nc2cccc3c2O[C@H](CN(C)CC2CCCCC2)[C@@H](C)CN([C@H](C)CO)C3=O)cc1	-0.4	nt
COc1cc(C)c2c(=O)cc(-c3ccccc3)oc2c1	-12.7	-3.8
CCC(C)NC(=O)Cn1c(=O)n(-c2ccc(Cl)c(Cl)c2)c(=O)c2c(C)c(C)sc21 (centres undefined)	12.7	nt
Cc1c(C(=O)NC2CCCc3ccccc32)oc2ccc(S(=O)(=O)N3CC(C)CC(C)C3)cc12 (centres undefined)	1.0	nt
C[C@@H]1CN([C@H](C)CO)C(=O)c2cccc(NC(=O)Nc3ccccc3)c2O[C@@H]1CN(C)C(=O)Nc1ccccc1	1.3	nt
C[C@H](CO)N1C[C@H](C)[C@H](CN(C)C(=O)Nc2ccc(C(F)(F)F)cc2)Oc2c(NS(=O)(=O)c3cccs3)cccc2C1=O	-3.1	nt
CC(C)(CN=C1NS(=O)(=O)c2ccccc21)CNC(=O)c1ccccc1Cl	4.3	0.5
C=C(C)C1=C[C@@]2(C)C(=CC1=O)CC[C@@H](O)[C@@H]2C	0.7	-0.3
COc1ccc(NC(=O)N(C)C[C@H]2Oc3c(NC(=O)c4ccncc4)cccc3C(=O)N([C@@H](C)CO)C[C@H]2C)cc1	3.0	nt
C[C@@H]1CN([C@@H](C)CO)C(=O)c2cccc(NC(=O)NC3CCCCC3)c2O[C@H]1CN(C)Cc1ccc2c(c1)OCO2	-3.7	nt
Cc1cc2cc(CNC(=O)Nc3cccc(Cl)c3)ccc2n1C	1.8	nt
Cc1noc(C)c1C(=O)Oc1ccc(-c2n[nH]nc2C#N)cc1	0.9	-4.5
Cc1ccc(CS(=O)Cc2ccc(C(=O)NCc3ccccc3)o2)cc1 (centres undefined)	4.9	0.0
C[C@H](CO)N1C[C@H](C)[C@H](CN(C)Cc2ccc(C(F)(F)F)cc2)Oc2ccc(NC(=O)C3CC3)cc2C1=O	-1.1	0.0
O=C(c1ccc(N2CCCC2=O)cc1)N1CCCC1	2.0	nt
Cc1noc(C)c1NC(=O)Nc1cccc2c1O[C@@H](CN(C)Cc1ccncc1)[C@H](C)CN([C@H](C)CO)C2=O	-11.9	nt
C[C@H](CO)N1C[C@H](C)[C@H](CN(C)C(=O)Nc2ccc(C(F)(F)F)cc2)Oc2ccc(NS(=O)(=O)c3ccc(F)cc3)cc2C1=O	-1.5	-0.2
Cc1cc(C(=O)Nc2cccc3c2O[C@@H](CN(C)CC2CC2)[C@@H](C)CN([C@H](C)CO)C3=O)n(C)n1	-2.9	nt
C[C@H]1CN([C@@H](C)CO)C(=O)c2cc(NC(=O)Cc3ccccc3)ccc2O[C@H]1CN(C)C(=O)Nc1ccc(C(F)(F)F)cc1	3.5	-0.5
CCOC(=O)C1C(=O)C=C(c2ccc(F)cc2)CC1c1ccc(CC)cc1 (centres undefined)	-5.1	nt
C[C@H]1CN([C@@H](C)CO)C(=O)c2cccc(NC(=O)Nc3ccc(C(F)(F)F)cc3)c2O[C@H]1CN(C)S(=O)(=O)c1ccc(Cl)cc1	0.5	nt
Cc1cccc(C)c1NC(=O)C1NC(=O)CC1c1ccccc1 (centres undefined)	-5.1	nt
CCC1=NN(C(=O)C(C)C)C(O)(c2ccc(Br)cc2)C1 (centres undefined)	-1.5	1.1
C[C@@H]1CN([C@@H](C)CO)C(=O)c2cc(NC(=O)Cc3cn(C)c4ccccc34)ccc2O[C@H]1CN(C)Cc1ccc2c(c1)OCO2	-3.7	0.1
O=C(NCCCN1CCCCC1)c1ccc2nc(N3CCCCC3)sc2c1	2.5	0.1

Retrieved by structure from above:
SMILES	BJeLR viability	A1 inh
Cc1cccc(C)c1NC(=O)C1NC(=O)CC1c1ccccc1 (centres undefined)	-5.1	nt
CCOC(=O)C1C(=O)C=C(c2ccc(F)cc2)CC1c1ccc(CC)cc1 (centres undefined)	-5.1	nt

Quoted from the listing.
BJeLR viability result of CCOC(=O)C1C(=O)C=C(c2ccc(F)cc2)CC1c1ccc(CC)cc1 (centres undefined) → -5.1
A1 inh result of C[C@H](CO)N1C[C@H](C)[C@H](CN(C)Cc2ccc(C(F)(F)F)cc2)Oc2ccc(NC(=O)C3CC3)cc2C1=O → 0.0

Continued.
SMILES	BJeLR viability	A1 inh
COc1ccc(NC(=O)Nc2ccc3c(c2)C(=O)N([C@H](C)CO)C[C@@H](C)[C@H](CN(C)C(=O)Nc2c(C)noc2C)O3)cc1	-2.8	-0.2
Cc1noc(C)c1NC(=O)Nc1ccc2c(c1)C(=O)N([C@@H](C)CO)C[C@@H](C)[C@H](CN(C)Cc1ccc(C(F)(F)F)cc1)O2	-3.2	-0.7
CC(C)NC(=O)N(C)C[C@@H]1Oc2c(NC(=O)Nc3ccc(F)cc3)cccc2C(=O)N([C@H](C)CO)C[C@H]1C	16.7	nt
Cn1c(SCc2ccccc2)nc2c([nH]c3ccccc32)c1=O	-1.3	nt
Cc1ccc(S(=O)(=O)N(C)C[C@@H]2Oc3ccc(NC(=O)NC(C)C)cc3C(=O)N([C@H](C)CO)C[C@@H]2C)cc1	3.3	0.1
COc1ccc(CN(C)C[C@@H]2Oc3ccc(NC(=O)C4CCCCC4)cc3C(=O)N([C@H](C)CO)C[C@@H]2C)cc1	-5.5	0.0
C[C@H](CO)N1C[C@H](C)[C@H](CN(C)S(=O)(=O)c2cccs2)Oc2ccc(NC(=O)Nc3ccc(C(F)(F)F)cc3)cc2C1=O	-2.6	-0.8
C[C@@H]1CN([C@H](C)CO)C(=O)c2cccc(NC(=O)c3ccc(-c4nccs4)cc3)c2O[C@H]1CN(C)S(=O)(=O)c1cn(C)cn1	0.2	nt
C[C@@H]1CN([C@@H](C)CO)C(=O)c2cccc(NC(=O)Nc3ccccc3)c2O[C@H]1CN(C)Cc1ccc(Oc2ccccc2)cc1	-3.9	nt
Cc1cccc(-c2nc3c(cnn3-c3ccccc3)c(=O)n2-c2ccccc2)c1	-2.8	nt
O=C(C1CCN(c2ncnc3c2sc2cccc(F)c23)CC1)N1CCCCCC1	0.1	-0.1
COc1ccc(S(=O)(=O)N(C)C[C@H]2Oc3ccc(NC(=O)Nc4ccc5c(c4)OCO5)cc3C(=O)N([C@@H](C)CO)C[C@H]2C)cc1	-6.9	0.6
COc1ccc(NC(=O)N(C)C[C@@H]2Oc3ccc(N(C)C)cc3C(=O)N([C@@H](C)CO)C[C@@H]2C)cc1	-1.1	0.9
CN(C(=O)c1noc2c1COc1ccccc1-2)c1cccc(C(F)(F)F)c1	4.4	-0.8
